Autofluor counter: flagged as autofluorescent in microsphere protease counterscreen; compound autofluorescence counterscreen, microsphere flow cytometry; hits give high values; fluorescence intensity (test concentration not listed); 3.1% of 360,000 active; AID 624483;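 active = at least 3 SD above the mean of all compounds, about 16000 in these data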;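 note: 100 nL of 1 mM stock went into each well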
The depositor's hits bear a star. The list is partial; count on the stated rates, not on these rows.

SMILES	Autofluor counter
Cc1cc(Br)cn2c(Cc3ccccc3C(F)(F)F)c(C3CCCCC3)nc12	4424
COCCCNC1=C(C#N)C(=O)NC(c2cccc([N+](=O)[O-])c2)S1 (centres undefined)	3096
O=C(Nc1cccc2ccccc12)c1ccc2sc([C@@H]3O[C@H](CO)[C@@H](O)[C@H]3O)nc2c1	3434
Cc1cccc(S(=O)(=O)N(C)C[C@@H]2OCc3cnnn3CCCC(=O)N([C@H](C)CO)C[C@@H]2C)c1	3916
COc1ccc(-c2cnc3c(NC=O)cc(-c4ccc(S(C)(=O)=O)cc4)cn23)cc1OC	2949
CC1(C(=O)NS(=O)(=O)Cc2ccccc2)CCN1C(=O)Cc1ccccc1 (centres undefined)	3083
O=C1NC[C@H](CCCCN2C[C@H](Cc3ccccc3)N(CCC3CCCCC3)C(=O)C2=O)N(CC2CCCCC2)C1=O	6091
CC(C)(C)n1nnnc1C(c1ccccc1)N1CCC2(CC1)C(=O)NCN2c1ccccc1 (centres undefined)	5824
COc1ccc(CC(N)c2csc(NC(=O)c3cccs3)n2)cc1 (centres undefined)	3237
C[C@@H]1CN([C@@H](C)CO)C(=O)c2cc(Br)cnc2O[C@H]1CN(C)Cc1cccnc1	2856
COc1ccc(C(C)=O)cc1CN1C(=O)C(C)ON=C1c1ccccn1 (centres undefined)	5514
CC1(C(=O)NC2CCc3ccccc32)CCN1CCc1ccccc1 (centres undefined)	3480
CCN(Cc1ccc(Br)s1)C(=O)CSc1nnc(C2CC2)n1C1CC1	2821
CC1=C(C(=O)N2CCOCC2)CC(CC(=O)NC2CCCCC2)C(=O)N1Cc1ccc(C(C)(C)C)cc1 (centres undefined)	3386
CC1(C(=O)NS(=O)(=O)c2cccc(F)c2)CCN1C(=O)Cc1ccccc1 (centres undefined)	3860
COC(=O)Cc1ccc(OC2(C)CCN(Cc3ccc(-c4ccccn4)cc3)C2)cc1 (centres undefined)	3781
CC1(C(=O)NCc2ccccc2Br)CCN1C(=O)C1(c2ccc(Cl)cc2)CC1 (centres undefined)	3024
Cc1cc(F)ccc1C(O)c1ncc(-c2ccc(Cl)cc2)[nH]1 (centres undefined)	3665
C=CCn1c(SCC(=O)Nc2c(C)n(C)n(-c3ccccc3)c2=O)nnc1-c1ccncc1	3502
Cc1onc(-c2ccccc2)c1-c1nnc(COC(=O)c2ccc(F)cc2)o1	3933
C[C@H]1Cn2cnc(C(=O)Nc3ccc(CNC(=O)OC(C)(C)C)cc3)c2C(=O)N1	3766
Cc1ccc(S(=O)(=O)N2C[C@H]3C(=O)C[C@@H](c4ccccc4)N(S(=O)(=O)c4ccccc4[N+](=O)[O-])[C@H]3C[C@H]2c2ccccc2)cc1	5232
Cc1ccc(-c2ccc3c(c2)O[C@H](CN(C)C(=O)Nc2ccc(C(F)(F)F)cc2)[C@H](C)CN([C@H](C)CO)S3(=O)=O)cc1	6151
CCOC(=O)[C@]12CCCC=C1N(Cc1cccc3ccccc13)C(=O)[C@H](CC(=O)NCC13CC4CC(CC(C4)C1)C3)C2	5884
C=C1C[C@@H]2C[C@@H]2CN(S(=O)(=O)c2ccc(C)cc2)[C@@H]1COCc1ccccc1	5489
COc1cccc(CN2C(=NC(=O)C3CCCO3)SC3CS(=O)(=O)CC32)c1 (centres undefined)	3019
COc1ccc(NC(=O)C2Cc3c(-c4ccc(NC(C)=O)cc4)ccnc3O2)cc1OC (centres undefined)	3400
COC(=O)c1ccc2nc(-c3ccc(OC)c(OC)c3)c(Cc3ccccc3)n2c1	4372
CCOc1ccc(S(=O)(=O)NCCC(=O)NCC(c2ccc(OC)cc2)N2CCOCC2)cc1 (centres undefined)	3178
Cc1ccc(S(=O)(=O)NN=C2CCc3ccccc32)cc1	3410
CC(Oc1ccccc1)C(=O)N1CCN(S(=O)(=O)c2ccc(OC(F)(F)F)cc2)CC1 (centres undefined)	3836
CC(=O)Nc1cc(-c2ccccc2)cn2c(-c3ccc(F)c(Cl)c3)cnc12	3809
CC(=O)Nc1cc(-c2ccccc2N(C)C)cn2c(-c3ccccc3)cnc12	3726
Nc1ncnc2c1ncn2[C@@H]1O[C@H](C(=O)N2CCN(c3nc4ccccc4o3)CC2)[C@@H](O)[C@H]1O	5856
COc1cccc(CN(C)C(=O)CC[C@H]2O[C@@H](n3ccc(=O)[nH]c3=O)[C@H](O)[C@@H]2O)c1	6051
C[C@H](c1ccccc1)N1C[C@@H](COCc2ccccc2)Oc2cc(N3CC[C@@H](N(C)C)C3)ccc2S1(=O)=O	5860
O=C(COC(=O)c1cccnc1Cl)Nc1ccc(N2CCOCC2)cc1	2841
CC1(C(=O)O)CCCN1C(=O)c1cccc(C(F)(F)F)c1 (centres undefined)	4255
CC(C)C[C@@H](CN1CCC[C@H]1CN1C(=O)C(=O)NC[C@@H]1Cc1ccc(O)cc1)N1C[C@H](Cc2ccccc2)N(CCc2ccccc2)C(=O)C1=O	5641
CC1(C(=O)Nc2cccc3cccnc23)CCN1Cc1csc2ccccc12 (centres undefined)	3727
CCCCCCCCN1C(=O)[C@H](CC(=O)NCCCOC)C[C@@]2(C(=O)OC)CCCCC=C12	5224
C[C@H]1COc2cc(N3CCC[C@H]3CO)ccc2S(=O)(=O)N1	6541
NC(=S)NN=Cc1nccc2c(N)cccc12	3480
Cc1ccccc1CNC(=O)c1csc([C@@H]2O[C@H](CO)[C@@H](O)[C@H]2O)n1	3618
Cc1ccc(Cc2c(-c3cccc(Cl)c3)nc3c(C)cc(Br)cn23)cc1	5871

The list goes on, starting with the last 5 of the part before.
SMILES	Autofluor counter
CCCCCCCCN1C(=O)[C@H](CC(=O)NCCCOC)C[C@@]2(C(=O)OC)CCCCC=C12	5224
C[C@H]1COc2cc(N3CCC[C@H]3CO)ccc2S(=O)(=O)N1	6541
NC(=S)NN=Cc1nccc2c(N)cccc12	3480
Cc1ccccc1CNC(=O)c1csc([C@@H]2O[C@H](CO)[C@@H](O)[C@H]2O)n1	3618
Cc1ccc(Cc2c(-c3cccc(Cl)c3)nc3c(C)cc(Br)cn23)cc1	5871
FC(F)(F)c1cccc(-c2cc3nc(NCCCn4ccnc4)ccn3n2)c1	3726
CCCCC(=O)N(C)c1c(C)nc2ccc(C(=O)N3CCN(C(C)=O)CC3)cn12	3995
O=C(NCc1ccccc1F)Nc1nnc([C@@H]2C[C@H](O)[C@@H](CO)O2)s1	3384
CCCNC(=O)C1(C)CCN(C(=O)c2cc(C)nn2C(C)(C)C)C1 (centres undefined)	4139
COc1cccc(Cn2cnc(-c3ccccc3OC)c2-c2cccnc2)c1	4191
CCNC(=O)C1CCCN(C(=O)c2cc(OC)c(OC)c(OC)c2)CC1 (centres undefined)	2974
CC[C@H](C)[C@H]1CNC(=S)N1CC1CCN(CCC(C)C)CC1	3660
CN(c1ccccc1)S(=O)(=O)c1cccc(C(=O)NCC(c2cccs2)N2CCOCC2)c1 (centres undefined)	3035
CCOC(=O)Cc1ccc(Nc2nc(NCc3ccccc3)nc3ccsc23)cc1	3619
CCC/C=C/c1ccc(CN2C(C)C(=O)N(Cc3cn(CCOCOC)nn3)CCS2(=O)=O)cc1 (centres undefined)	3474
CCCCNc1c(-c2cccc(OC)c2)nc2nc(C)cc(C)n12	7167
CC1CCC(NC(=O)C2CCC(CNS(=O)(=O)c3ccc4c(c3)C(C)(C)C(=O)N4C)CC2)CC1 (centres undefined)	5648
N#Cc1ccc(-c2nc3c4ccccc4ccn3c2CC2CCCCC2)cc1	6548
COC(=O)N(C)C[C@H]1OCc2cnnn2CCCC(=O)N([C@@H](C)CO)C[C@@H]1C	3769
O=C(C1CCCCC1)N1C[C@@H](O)[C@H](n2cc(-c3ccc(F)cc3)nn2)C[C@@H]1c1ccc(Cl)cc1	3249
Cc1cccc(C)c1-n1nnnc1C(CCc1ccccc1)N1CCC2(CC1)C(=O)NCN2c1ccccc1 (centres undefined)	6156
CCOC(=O)C1=CCC(c2ccccc2C)N(S(=O)(=O)c2ccc(C)cc2)C1 (centres undefined)	5756
CN(C)c1ccc(CNC(=O)C2(C)Cc3c(-c4ccc5c(c4)OCO5)ccnc3O2)cc1 (centres undefined)	3860
Fc1ccc(-c2nc3ccc(Cl)cn3c2Cc2ccsc2)cc1	6952
NNC(=O)CNC(=O)Nc1n[nH]c(=S)s1	5832
CC1(C(=O)O)CCCN(C(=O)c2ccc3c(c2)C(C)(C)CCC3(C)C)C1 (centres undefined)	3794
COCCNC(=O)C1CCCN(C(=O)c2nc3ccccc3s2)CC1 (centres undefined)	3792
Cc1nn(CC(C)C)c(Cl)c1C(=O)NC1CCCC1	3872
CC1(C(=O)NS(=O)(=O)C2CC2)CCCN(C(=O)c2cccnc2Oc2ccccc2)C1 (centres undefined)	2801
COc1ccc(CCN2CC(C(=O)OCC(=O)c3c(N)n(CC(C)C)c(=O)n(C)c3=O)CC2=O)cc1OC (centres undefined)	2827
CCN(CC)S(=O)(=O)c1ccc(O)c(C(=O)OCC(=O)N2CCCc3ccccc32)c1	3576
Nc1ncnc2c1ncn2[C@@H]1O[C@H](C(=O)N2CCN(Cc3ccccn3)CC2)[C@@H](O)[C@H]1O	5580
CCCCOCCCNC(=O)C[C@@H]1C[C@@]2(C(=O)OC)CCCCC=C2N(Cc2ccc(Cl)cc2Cl)C1=O	5856
CC(C)(C)n1nnnc1C(c1ccccc1)N1CCN(CCN2CCOCC2)CC1 (centres undefined)	5394
CC(=O)Nc1cc(-c2ccncc2)cn2c(-c3ccccc3)cnc12	3013
C[C@H](CO)N1C[C@H](C)[C@@H](CN(C)C(=O)Nc2ccc(F)cc2)Oc2ncc(-c3ccc(F)cc3)cc2C1=O	3135
COc1cc(Cn2c3ccc(NC(=O)CCc4cccnc4)cc3c(=O)n2C)ccc1F	3942
O=C(NCc1nnnn1-c1ccc(Cl)cc1)c1ccc([N+](=O)[O-])o1	3830
Cc1ccccc1S(=O)(=O)NC(=O)C1(C)CCN1C(=O)C(C)(C)c1ccccc1 (centres undefined)	3681
CCc1nc2c(OCC(=O)C(C)(C)C)cccn2c1N(C)C(=O)C1CC1	3483
Oc1ccc(C[C@H]2CN([C@@H](Cc3ccc(O)cc3)CN3CCC[C@@H]3CN3C(=S)NC[C@@H]3Cc3ccccc3)C(=S)N2CCc2ccccc2)cc1	4256
Cc1ccc(S(=O)(=O)N2C[C@H]3[C@H]4C(=O)N(c5ccccc5)C(=O)[C@H]4C[C@H](OC(=O)NCc4ccccc4)[C@@]3(O)C2)cc1	5082
CCCCCCCCN1C(=O)[C@H](CC(=O)NCCc2ccccc2OC)C[C@@]2(C(=O)OC)CCCCC=C12	4135
COc1ccc(-c2csc(C(NC(C)=O)c3ccccc3)n2)cc1 (centres undefined)	3823
COC(=O)[C@@]1(Cc2ccc(F)cc2)[C@H]2c3cc(C(=O)N4CCCC4)n(CCc4c[nH]c5ccccc45)c3C[C@H]2CN1C(=O)c1ccccc1	5767
CC1=C(C(=O)N(C(C)C)C(C)C)CC(CC(=O)NC2CCCC2)C(=O)N1Cc1ccc(C(C)(C)C)cc1 (centres undefined)	6429
CCCCCC(=O)N1C[C@H](O)[C@@H](n2cc(COC(=O)c3ccccc3)nn2)C[C@@H]1c1ccc(Cl)cc1	3824
CC1(Cc2cc(Cl)ccc2C(F)(F)F)C(=O)Nc2cc(F)ccc21 (centres undefined)	3727
O=C(NCCc1cccs1)Nc1ccc2nc([C@@H]3O[C@H](CO)[C@@H](O)[C@H]3O)[nH]c2c1	5632
CCOC(=O)C(=O)N(C)c1c(CC)nc2c(OCc3cccc(OC)c3)cccn12	2865
COc1ccc(CNC(=O)C[C@@H]2C[C@H]3c4cc(NC(=O)C5CCC5)ccc4O[C@H]3[C@@H](CO)O2)cc1	3998
Cc1ccc(S(=O)(=O)N2[C@H](c3ccc(Cl)cc3)CC(=O)[C@@H]3CN(S(=O)(=O)c4ccccc4C)[C@H](c4ccc(Cl)cc4)C[C@@H]32)cc1	5825
CCc1nc2ccc(C(=O)NCCC(C)C)cn2c1N(C)Cc1nccs1	3628
CCOC(=O)C1(C)CCN1C(=O)c1oc2ccccc2c1C (centres undefined)	2914
CC(C)C[C@H]1CNC(=O)C(=O)N1C[C@@H]1CCCN1C[C@H](Cc1ccccc1)N1C[C@H](Cc2ccccc2)N(CC2CCCCC2)C(=O)C1=O	5017
CCc1ccc(NC(=O)CCCOc2cc(=O)n(C)c3ccccc23)cc1	3765
O=S(=O)(c1ccc(NC(=S)N2CCCCC2CO)cc1)N1CCOCC1 (centres undefined)	4573
CNc1cncc(-c2cc(OC)c(OC)c(OC)c2)n1	3809
CCOC(=O)C1CN(C(=O)OCC)CC1=NNC(N)=O (centres undefined)	3715
CCOC(=O)[C@]12Cc3cc(C)ccc3[C@H]1N(CCC(=O)OC)C(=O)c1ccccc12	5374
CC(C)(C)n1nnnc1C(c1ccccc1)N1CCN(c2ccccn2)CC1 (centres undefined)	6191
Cc1cc(/C=C(\C#N)C(=O)NCc2ccccc2)c(C)[nH]1	4020
C[C@H]1CN([C@@H](C)CO)C(=O)CCCn2nncc2CO[C@@H]1CN(C)S(=O)(=O)c1ccc(-n2cccn2)cc1	2744
CCOC(=O)N(C)c1c(CC)nc2c(OCc3ccc(C(F)(F)F)cc3)cccn12	4070

Copied from the results shown, 6 compounds:
SMILES	Autofluor counter
Cc1cc(Br)cn2c(Cc3ccccc3C(F)(F)F)c(C3CCCCC3)nc12	4424
COCCCNC1=C(C#N)C(=O)NC(c2cccc([N+](=O)[O-])c2)S1 (centres undefined)	3096
O=C(Nc1cccc2ccccc12)c1ccc2sc([C@@H]3O[C@H](CO)[C@@H](O)[C@H]3O)nc2c1	3434
Cc1cccc(S(=O)(=O)N(C)C[C@@H]2OCc3cnnn3CCCC(=O)N([C@H](C)CO)C[C@@H]2C)c1	3916
COc1ccc(-c2cnc3c(NC=O)cc(-c4ccc(S(C)(=O)=O)cc4)cn23)cc1OC	2949
CC1(C(=O)NS(=O)(=O)Cc2ccccc2)CCN1C(=O)Cc1ccccc1 (centres undefined)	3083

High-throughput results: PubChem, NMMLSC
